Beta2AR agonist: activates human beta-2 adrenergic receptor causing internalization; AID 504454; response, % (concentration not given with the values); actives 0.43% (n = 340,000); P07550; Am2.2-beta2AR cells, FAP receptor internalization, flow cytometry; reference of the scale not given here;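 active = response above a set limit, near 3 SD of response in nonfluorescent compounds, cut at about 42% in these data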;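 note: stock transfer was 100 nL into about 11 µL; a reference agonist was the positive control; negative values mostly stem from fluorescent compounds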
Target sequence (P07550 whole entry, looked up): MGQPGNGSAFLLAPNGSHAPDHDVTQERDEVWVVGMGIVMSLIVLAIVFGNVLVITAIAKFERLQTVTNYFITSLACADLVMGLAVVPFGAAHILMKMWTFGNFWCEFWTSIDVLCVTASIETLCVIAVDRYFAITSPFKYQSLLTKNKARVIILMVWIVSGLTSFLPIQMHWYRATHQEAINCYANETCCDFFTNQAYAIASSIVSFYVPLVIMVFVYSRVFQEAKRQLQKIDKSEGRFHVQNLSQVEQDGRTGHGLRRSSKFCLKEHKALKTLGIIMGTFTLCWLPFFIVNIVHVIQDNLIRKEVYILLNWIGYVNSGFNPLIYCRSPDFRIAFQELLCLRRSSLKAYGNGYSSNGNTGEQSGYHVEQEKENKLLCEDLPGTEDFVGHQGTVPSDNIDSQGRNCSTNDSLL
Beta apoptosis: blocks beta cell apoptosis. INS-1E cytokine-induced death, ATP luminescence, 48 h; percent of positive-control rescue, neutral wells zero. protection from apoptosis, % (test concentration not listed). actives 0.8% (n = 300,000);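 active = all replicates at 75% or more, or half of them and the mean; inconclusive = half reach 75% but not the mean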;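 note: 0% = cytokine-treated negative control wells and 100% = positive control rescue; higher means more ATP so stronger rescue from cytokine killing; wells of about 40 µL received 100 nL stock; the first replicate is given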
Bfl-1 A1 inh: inhibitors of the anti-apoptotic protein A1, read as caspase activation; MEF A1-2A-BIM cells, Caspase-Glo 3/7 luminescence, 3 h; percent of clofoctol response, vehicle zero; caspase activation, % (no concentration beside the values); actives 0.066% (n = 330,000); AID 2462;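 active = over half of replicate activation scores above 10%, or exactly half above 10 with the replicate mean above 10; inconclusive = replicate mean below 10 yet half the replicates above 10; inactive = over half of replicates below 10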;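 note: wells of about 30 µL received 50 nL stock; many hits fall short of the cut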
RanGTP-Impb inh: inhibitors of RanGTP-importin-beta interaction, primary screen, biochemical, FRET, CFP-Ran, YFP-importin-beta, homogeneous; cell-free CFP-Ran/YFP-importin-beta FRET ratio; inhibition, % (concentration not given with the values); actives 1.1% (n = 300,000);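 active = most replicates above 15%; inconclusive = exactly half above 15%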;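 note: 0% = DMSO wells and 100% = Ran loaded with GDP instead of GTP; wells of about 40 µL received 100 nL stock; the first replicate is given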
LANA-H2B inh: blocks KSHV LANA binding to histone H2A/H2B; Q9QR71; cell-free LANA-H2A/H2B peptide, fluorescence polarization; inhibition, % (concentration not given with the values); actives 0.6% (n = 320,000); in the data active = inhibition mostly above about 10%, no sharp cut-off; inactive = mostly below about 6.7%;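 note: stock transfer was 7.5 nL into about 10 µL; 0% = median of vehicle wells and 100% = median of positive control wells; one replicate is shown; the record names a cut of 25% in any replicate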
UCH37 inh: human UCH37 deubiquitinating enzyme inhibition; Q9Y5K5; purified proteasome/UCH37, Ub-AMC cleavage fluorescence; inhibition, % (test concentration not listed); actives 0.33% (n = 330,000);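 active = mean of two replicates above 20%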;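 note: 0% = compound-free wells with enzyme and 100% = wells lacking proteasome; stock transfer was 100 nL into about 20 µL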
Target sequence (Q9Y5K5 whole entry, looked up): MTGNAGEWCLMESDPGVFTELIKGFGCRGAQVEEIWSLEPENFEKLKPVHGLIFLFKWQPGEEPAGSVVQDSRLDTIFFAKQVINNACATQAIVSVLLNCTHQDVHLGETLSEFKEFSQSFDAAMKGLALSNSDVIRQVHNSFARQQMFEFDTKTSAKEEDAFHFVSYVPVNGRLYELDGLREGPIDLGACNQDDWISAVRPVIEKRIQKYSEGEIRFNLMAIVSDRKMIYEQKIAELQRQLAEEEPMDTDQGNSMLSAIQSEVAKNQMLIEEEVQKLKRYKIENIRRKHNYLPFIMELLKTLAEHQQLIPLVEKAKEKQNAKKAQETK
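Test system – human UCH37 enzyme supplied as purified proteasome complex · Incubation – 30 min preincubation with enzyme, 25 min cleavage at room temperature · Detection – AMC fluorescence from Ub-AMC cleavage, excitation 355 nm, emission 460 nm · Benchmarks – no-proteasome wells (full inhibition) and compound-free wells (no inhibition)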
Calb FLC: C. albicans growth modulation with fluconazole. C. albicans CaCi-2 (fluconazole-resistant clinical isolate) + fluconazole, Alamar Blue growth, 48 h. growth inhibition, % (no concentration beside the values). actives 0.57% (n = 300,000);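 active = most replicates above 75%; inconclusive = exactly half above 75%; inactive = most below 75%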;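 note: all wells also contain fluconazole at 8 µg/ml as a sub-toxic cotreatment; 0% = median of DMSO wells and 100% = median of geldanamycin control wells; wells of about 8 µL received 7.5 nL stock; the first replicate is given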
T cruzi repl: T. cruzi replication inhibition | inhibition, % (test concentration not listed) | T. cruzi beta-gal in NIH3T3, luminescence, 90 h | actives 1.4% (n = 300,000) | AID 1885;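 active = mean inhibition across valid replicates above about 55%, limit read from the data; inconclusive = mean below that limit but half or more replicates reach it; inactive = mean below it, under half of replicates reach it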;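 note: signal also drops with host cell toxicity which is not excluded here; 0% = plate median of DMSO wells and 100% = zero luminescence signal; higher percent means less beta-gal luminescence so fewer parasites; stock transfer was 50 nL into about 50 µL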
Active calls of the source: *; ? = inconclusive; · = not tested or not shown.

#1 O=C(Cc1cccs1)N(CC1CCCO1)C1(C(=O)NC2CCCC2)CCCCC1 (stereo unspecified)
#2 Cc1cc(N(C)/N=C/c2ccccc2O)nc(-c2ccccc2O)n1
#3 COc1ccc(NC(=O)CSc2ccc3ccccc3c2)cc1S(=O)(=O)N1CCCCC1
#4 CC(C)c1ccc(-c2csc3nc[nH]c(=O)c23)cc1
#5 Cn1ccnc1SCC(=O)c1ccc([N+](=O)[O-])cc1
#6 COc1ccc(CCNC(=O)CN(C)S(=O)(=O)c2ccc(Br)s2)cc1OC
#7 CN(C)CCCNC(=O)c1cc(C(=O)c2c(Cl)cccc2Cl)c[nH]1
#8 C=C(C)COc1ccc(-c2[nH]ncc2-c2ccccc2OC)c(O)c1
screen / no.	1	2	3	4	5	6	7	8
Beta2AR agonist	4.5	3.3	11.9	10.4	14.2	0.2	-4.8	-2.5
Beta apoptosis	-11.4	-2.2	-0.6	-1.7	3.2	-1.0	-8.1	0.0
Bfl-1 A1 inh	0.6	-0.1	0.6	0.6	-0.8	-0.2	-0.2	0.5
RanGTP-Impb inh	-1.6	-4.6	2.9	8.4	-0.7	0.8	2.9	1.1
LANA-H2B inh	0.1	-6.3	2.7	-0.2	3.0	-2.3	4.0	3.6
UCH37 inh	-0.5	·	-0.6	-0.1	2.2	3.9	2.3	2.4
Calb FLC	21.9	-1.1	-2.1	18.3	38.3	-1.1	2.7	13.5
T cruzi repl	-0.1	-2.7	-2.1	-50.7	-6.5	-1.9	52.3	-3.0

#9 COc1ccc(NC(=O)c2ccccc2[N+](=O)[O-])cc1
#10 CNC(=S)N/N=C(\C)c1cccc(C(F)(F)F)c1
#11 Cc1ccc(NC(=O)c2cc(C)n(-c3ccccc3)c2C)cc1
#12 Cc1cc(OCC(=O)Nc2ccccn2)c2c(C)c(C)c(=O)oc2c1
#13 CCn1c(=O)c(C(=O)NNC(=O)c2ccc(Cl)cc2Cl)c(O)c2ccccc21
#14 C=C(C)CSc1nc2ccccc2c(=O)n1-c1c(C)n(C)n(-c2ccccc2)c1=O
#15 NC(=O)c1ccc(C(F)(F)F)n(Cc2ccccc2Cl)c1=O
#16 CCc1nnc(NC(=O)CN2CCN(c3cccc(OC)c3)CC2)s1
screen / no.	9	10	11	12	13	14	15	16
Beta2AR agonist	8.1	-13.2	11.8	2.7	-3.3	-3.0	-21.0	-7.0
Beta apoptosis	-2.1	-0.9	6.0	-0.1	3.2	-2.2	-13.3	·
Bfl-1 A1 inh	-0.4	-0.5	-0.3	0.0	0.5	0.6	-0.7	0.3
RanGTP-Impb inh	-0.4	2.8	2.3	5.1	-1.0	9.4	0.3	0.7
LANA-H2B inh	7.2	0.8	-0.4	-2.5	3.1	0.7	6.4	-1.7
UCH37 inh	0.3	·	1.8	-11.4	-5.4	1.9	1.0	1.0
Calb FLC	-3.8	-16.6	15.4	-6.6	5.0	37.6	16.4	1.6
T cruzi repl	5.9	-1.4	1.5	-6.6	-5.0	14.2	-6.7	-11.8

#17 O=C(c1ccccc1)C1CCN(CC(=O)N2CCN(c3ccccc3)CC2)CC1
#18 O=C(Nc1ccccc1)Nc1ccc(Oc2ncnc3cc(Cl)ccc23)nc1
#19 COC(=O)c1nnn(-c2nonc2N)c1CSc1ccccn1
#20 CC(=O)N1CCCc2ccc(NS(=O)(=O)c3ccccc3)cc21
#21 OCCN(CCO)CC(O)CN(c1ccccc1)c1ccccc1 (stereo unspecified)
#22 CCCC(NC(=O)c1ccco1)c1nc2ccccc2[nH]1 (stereo unspecified)
#23 O=C1CCC(NC(=O)c2ccccc2)C(=O)N1 (stereo unspecified)
#24 COc1ccc(NC(=O)CSc2nnc(N)n2CC(=O)Nc2ccc(OC)cc2)cc1
screen / no.	17	18	19	20	21	22	23	24
Beta2AR agonist	7.5	·	9.0	10.5	-5.4	3.1	-2.5	4.6
Beta apoptosis	-6.0	-6.6	1.7	2.6	2.0	-0.5	-0.9	-1.9
Bfl-1 A1 inh	1.3	1.4	0.0	0.4	-0.2	-0.2	-0.7	-0.4
RanGTP-Impb inh	?	0.9	3.1	1.3	-1.1	0.4	2.2	·
LANA-H2B inh	0.8	-5.3	0.7	-0.1	-2.7	2.6	0.4	6.6
UCH37 inh	-2.3	5.6	3.4	1.6	3.0	-0.1	-1.2	-0.3
Calb FLC	1.2	25.5	4.8	-6.8	0.4	-2.4	-1.6	-9.7
T cruzi repl	22.8	-9.9	-8.2	-7.9	-1.1	-10.8	-4.6	·

Reformatted with two lines to a compound: part of the list above.
Values run as follows: Beta2AR agonist, Beta apoptosis, Bfl-1 A1 inh, RanGTP-Impb inh, LANA-H2B inh, UCH37 inh, Calb FLC, T cruzi repl
16. CCc1nnc(NC(=O)CN2CCN(c3cccc(OC)c3)CC2)s1
    -7.0, ·, 0.3, 0.7, -1.7, 1.0, 1.6, -11.8
17. O=C(c1ccccc1)C1CCN(CC(=O)N2CCN(c3ccccc3)CC2)CC1
    7.5, -6.0, 1.3, ?, 0.8, -2.3, 1.2, 22.8
18. O=C(Nc1ccccc1)Nc1ccc(Oc2ncnc3cc(Cl)ccc23)nc1
    ·, -6.6, 1.4, 0.9, -5.3, 5.6, 25.5, -9.9
19. COC(=O)c1nnn(-c2nonc2N)c1CSc1ccccn1
    9.0, 1.7, 0.0, 3.1, 0.7, 3.4, 4.8, -8.2
20. CC(=O)N1CCCc2ccc(NS(=O)(=O)c3ccccc3)cc21
    10.5, 2.6, 0.4, 1.3, -0.1, 1.6, -6.8, -7.9
21. OCCN(CCO)CC(O)CN(c1ccccc1)c1ccccc1 (stereo unspecified)
    -5.4, 2.0, -0.2, -1.1, -2.7, 3.0, 0.4, -1.1
22. CCCC(NC(=O)c1ccco1)c1nc2ccccc2[nH]1 (stereo unspecified)
    3.1, -0.5, -0.2, 0.4, 2.6, -0.1, -2.4, -10.8
23. O=C1CCC(NC(=O)c2ccccc2)C(=O)N1 (stereo unspecified)
    -2.5, -0.9, -0.7, 2.2, 0.4, -1.2, -1.6, -4.6

(cont.)
#25 Nc1cc(C(=O)OCC(=O)NNC(=O)c2ccccc2F)ccc1Cl
#26 Cc1ccc(NC(=O)c2sc(N)nc2C)cc1
#27 CCCN(CCC)S(=O)(=O)c1ccc(C(=O)NNC(=O)c2cc(OC)c(OC)c(OC)c2)cc1
#28 CCOC(=O)CNC(=S)N(Cc1ccccc1)Cc1cccnc1
#29 CCN(Cc1ccncc1)C(=O)c1cc(COc2c(F)cccc2F)on1
#30 CCc1ccc(NC(=O)CCc2c(C)nn(-c3ccc(N4CCOCC4)nn3)c2C)cc1
#31 O=C(c1coc2ccccc2c1=O)N1CCN(c2cccc(C(F)(F)F)c2)CC1
#32 CCCCC1(C(=O)OC)NC(c2ccc(O)cc2)C2C(=O)N(c3ccccc3)C(=O)C21 (stereo unspecified)
screen / no.	25	26	27	28	29	30	31	32
Beta2AR agonist	-3.9	-5.5	4.6	0.4	3.3	-19.2	6.4	-7.7
Beta apoptosis	-10.2	2.3	-2.1	1.2	-1.1	-2.3	-5.6	-0.8
Bfl-1 A1 inh	0.6	-2.8	-0.1	0.3	-0.1	-0.4	0.7	1.2
RanGTP-Impb inh	·	-5.8	3.8	1.0	5.2	3.0	3.3	-1.6
LANA-H2B inh	0.9	1.5	-2.8	-4.7	1.4	0.0	4.4	1.1
UCH37 inh	-17.2	2.9	7.2	0.9	0.7	-1.0	4.8	0.5
Calb FLC	·	-1.4	1.3	-2.0	7.0	6.4	?	-2.1
T cruzi repl	·	-10.4	-6.6	34.9	-1.2	4.2	-10.6	-10.3

#33 COc1ccc(CN2CCC(n3nccc3NC(=O)C3CC3)CC2)c(OC)c1OC
#34 Cc1[nH]n2c(=O)cc(-c3ccc([N+](=O)[O-])cc3)nc2c1-c1ccccc1
#35 Cc1ccc(C(=O)Nc2cccc(C(F)(F)F)c2)cc1NC(=O)c1c[nH]c2cc(C(F)(F)F)ccc2c1=O
#36 C#CCOCCOCCOCCNc1nc(N2CCN(C(=O)[C@H](C(C)C)n3cc(CCO)nn3)CC2)nc(N2CCN(C(=O)[C@H]([C@@H](C)CC)n3cc(CCCCN)nn3)CC2)n1
#37 COC(=O)c1[nH]c2cccc(OC)c2c1NC(=O)CN1CCC(C(N)=O)(N2CCCCC2)CC1
#38 CCC(C(=O)NC1CCCCC1)N(Cc1cccs1)C(=O)c1snc(C(N)=O)c1N (stereo unspecified)
#39 CCCCNC(=O)CS(=O)Cc1nc(-c2ccc(C)cc2)oc1C (stereo unspecified)
#40 CC(=O)N1CCN(c2ccc([N+](=O)[O-])c(NCc3cccnc3)c2)CC1
screen / no.	33	34	35	36	37	38	39	40
Beta2AR agonist	-4.4	18.3	-4.0	6.6	2.7	-1.4	-0.7	3.1
Beta apoptosis	·	2.7	-10.3	-4.8	-4.9	-8.4	0.0	-5.7
Bfl-1 A1 inh	0.2	1.2	-0.2	-0.6	0.2	-0.1	0.6	-0.7
RanGTP-Impb inh	2.4	-2.0	·	4.0	6.7	-5.6	1.2	0.4
LANA-H2B inh	-0.9	3.0	3.4	-5.4	-7.8	-7.3	3.0	-1.3
UCH37 inh	-1.1	2.4	3.0	-1.0	-30.6	-25.8	5.3	11.3
Calb FLC	1.8	-1.4	·	0.8	-6.4	0.1	-2.8	-1.5
T cruzi repl	-14.5	4.2	·	-16.2	-8.3	16.9	-7.6	?

#41 COc1cccc(NC(=O)NC2CCN(Cc3nnnn3Cc3ccc(F)cc3)CC2)c1
#42 CSc1ccccc1N=CC1=C(O)CC(C)(C)CC1=O
#43 CC(C)[C@H](NS(=O)(=O)c1ccc2c(c1)OCCO2)C(=O)OCC(=O)Nc1cccc(Cl)c1Cl
#44 O=C(C1=C(O)C(=O)N(Cc2ccco2)C1c1ccccc1F)c1cccs1 (stereo unspecified)
#45 Cc1cc(=O)c(C(=O)O)nn1-c1cccc(C(F)(F)F)c1
#46 COc1ccccc1/C=C/C=N/NC(=O)CCC1C(=O)NN=C1C (stereo unspecified)
#47 CCOCCCNC(=O)C(NC(=O)CNC(C)=O)c1ccc(C)cc1 (stereo unspecified)
screen / no.	41	42	43	44	45	46	47
Beta2AR agonist	-1.8	1.9	1.3	-0.1	2.0	-9.7	2.0
Beta apoptosis	-3.5	·	1.7	-13.2	5.7	-5.4	-6.0
Bfl-1 A1 inh	0.1	-0.4	-0.9	-0.1	-0.1	0.1	-0.8
RanGTP-Impb inh	0.2	0.6	-1.5	-2.2	-4.2	-0.8	3.0
LANA-H2B inh	5.4	-5.5	6.4	8.0	-1.4	0.4	-1.0
UCH37 inh	3.4	7.8	2.1	3.8	3.1	·	0.1
Calb FLC	6.6	-1.3	-32.0	-8.0	-4.2	10.1	3.7
T cruzi repl	17.4	-20.7	0.1	-1.4	-7.0	-2.2	0.4

Source: PubChem
